Cruzain inh noDet = qHTS Assay for Promiscuous and Specific Inhibitors of Cruzain (without detergent); Cruzipain (Trypanosoma cruzi), P25779; purified cruzain, Z-FR-AMC fluorescence, no detergent; Potency, µM, for the others: max response, negative = inhibition, hits mostly inhibitors; actives 2.3% (n = 200,000);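 further: plate controls were enzyme without inhibitor for no effect and buffer without enzyme for full effect; nearly all actives have a fitted effect of over 40% in size; top concentration of the series not given in the record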
Target sequence (P25779 123-467 limits assumed): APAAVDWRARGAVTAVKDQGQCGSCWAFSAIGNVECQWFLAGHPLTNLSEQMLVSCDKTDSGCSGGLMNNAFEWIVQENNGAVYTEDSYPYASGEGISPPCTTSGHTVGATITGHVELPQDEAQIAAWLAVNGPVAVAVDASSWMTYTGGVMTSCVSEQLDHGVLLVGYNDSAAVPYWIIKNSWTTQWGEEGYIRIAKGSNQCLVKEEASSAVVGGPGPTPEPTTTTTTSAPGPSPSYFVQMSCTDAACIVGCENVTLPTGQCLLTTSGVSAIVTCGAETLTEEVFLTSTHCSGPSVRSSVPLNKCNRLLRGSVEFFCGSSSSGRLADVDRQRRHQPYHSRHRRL
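Detergent-free condition (0.00005% Triton X-100) in acetate buffer pH 5.5 with DTT. 1.5 nM enzyme and compound were pre-mixed 15 min, then 2 uM Z-FR-AMC substrate added; reaction progress from fluorescence change between first and third reads (60 s).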
Cruzain inh Det = qHTS Assay for Promiscuous and Specific Inhibitors of Cruzain (with detergent); Cruzipain (Trypanosoma cruzi), P25779; purified cruzain, Z-FR-AMC fluorescence, 0.01% Triton; Potency, µM, for the others: max response, negative = inhibition, usual class: inhibitors; actives 0.43% (n = 200,000); AID 1478, 2009;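 further: plate controls were neutral wells for no effect and buffer without enzyme for full effect; nearly all actives have a fitted effect of over 40% in size; top concentration of the series not given in the record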
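In this qHTS format, compounds are incubated with 1.5 nM cruzain for 15 min at room temperature before 2 uM Z-FR-AMC is added. Release of AMC is followed at 360/450 nm, and progress is taken as the 60 s fluorescence difference.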
StopGo reporter = High Throughput Screening for Foot and Mouth Disease Virus Antivirals; human cells with a luciferase reporter of 2A StopGo recoding; control for the full effect not named in the record; Potency, µM (doses to about 57.9 µM), for inactives: at the top dose signal change, negative = less light; actives 1.2% (n = 410,000); AID 1159524, 2015; active = well fitted falling curve with a large enough effect; inconclusive = small, poorly fitted or top-dose-only effect; inactive = no such curve, though single readings can be large or run the other way; tested in HEK293T cells; further: nearly all actives have a fitted effect of over 45% in size; luciferase light after 4 h
* = called active by the depositor; ? = inconclusive; & = joins results of further samples. Unless noted, the call rests on the fitted dose curve; in most records, active means well fitted curve in the direction sought with a large enough effect; inconclusive means small, poorly fitted or top-dose-only effect, or another doubt; inactive means no such curve, though single readings can be large; an effect the other way counts as inactive or inconclusive. Unless noted, on the % scale 0 is the no-effect control and ±100 the full control effect; potency means the concentration at half of the fitted maximal effect. A portion of the library; the hit share may differ from the screen's.

The first three entries, ahead of the listing:
SMILES	Cruzain inh noDet	Cruzain inh Det	StopGo reporter
COc1ccc(C(=O)N2CCC3(CCCN(c4ccccn4)C3)CC2)cc1	-2.6%	-2.5%	5.8%
CC(C)NC(=O)N1CCC2(CC1)CCN(S(=O)(=O)c1ccccc1)CC2	6.5%	2.6%	3.3%
CN1CCN(c2ncc3nc(-c4cn(C)c5ccccc45)c(=O)n(-c4ccccc4)c3n2)CC1	-17.5%	2.6%	-13.6%

Main list, from the first entry:
SMILES	Cruzain inh noDet	Cruzain inh Det	StopGo reporter
COc1ccc(C(=O)N2CCC3(CCCN(c4ccccn4)C3)CC2)cc1	-2.6%	-2.5%	5.8%
CC(C)NC(=O)N1CCC2(CC1)CCN(S(=O)(=O)c1ccccc1)CC2	6.5%	2.6%	3.3%
CN1CCN(c2ncc3nc(-c4cn(C)c5ccccc45)c(=O)n(-c4ccccc4)c3n2)CC1	-17.5%	2.6%	-13.6%
Oc1cc(O)c2c(c1)OC(c1cc(O)c(O)c(O)c1)C(O)C2 (stereo not drawn)	-2.6%	2.0%	-9.0%
COc1ccccc1-c1ccc2ncnc(N(C)C)c2c1	0.2%	-7.7%	?
O=c1c(-c2cc(F)cc(F)c2)nc2cncnc2n1C1CC1	-6.8%	-3.7%	-9.5%
CC(=O)C1CC[C@H]2C3CC[C@@H]4CC(O)CC[C@@]4(C)C3CC[C@]12C (stereo partly drawn)	-6.5%	3.4%	-6.1%
COc1cccc(Cn2c(=O)c(-c3ccc(F)cc3)nc3cnc(N4CCNCC4)nc32)c1	5.0%	2.2%	-10.3%
COc1ccc(Oc2ncc3ncc(=O)n(-c4ccc(OC)cc4)c3n2)cc1	4.8%	2.1%	-3.2%
COc1ccccc1CN1CC[C@@]2(CCCN(C(=O)c3c(C)noc3C)C2)C1	-7.9%	-0.3%	-6.1%
COCCn1c(=O)c(-c2cn(C)c3ccccc23)nc2cnc(Oc3ccc(OC)cc3)nc21	-1.3%	0.1%	-7.8%
COc1ccccc1CCn1c(=O)c(C)nc2cncnc21	8.4%	2.9%	-16.6%
CC(=O)OCC1OC(n2c(Br)nc3c(=O)[nH]c(N)nc32)C(OC(C)=O)C1OC(C)=O (stereo not drawn)	-5.7%	3.4%	0.4%
CN(CCC(N)CC(=O)NC1C=CC(n2ccc(N)nc2=O)OC1C(=O)O)C(=N)N (stereo not drawn)	-9.4%	0.7%	13.2%
O=C(c1ccco1)N1CCC2(CCCN(Cc3ccccc3)C2)CC1	-9.4%	0.6%	-7.9%
COCCNc1nc(-c2ccccc2OC)nc2ccccc12	-6.1%	-2.2%	-3.0%
O=C(c1cccc(F)c1)N1CCC2(CC1)CN(C(c1ccccc1)c1ccccc1)C2	-8.5%	0.4%	-6.1%
COc1cccc(-c2cncnc2N(C)Cc2ccco2)c1	3.6%	3.8%	-6.7%
FC(F)(F)c1ccccc1-c1nc(NCc2cccnc2)c2ccccc2n1	2.8%	1.2%	-25.4%
O=C(/C=C/c1ccccc1)c1ccc(O)cc1	-2.8%	-1.4%	22.7%
N#CCCn1c(=O)c(-c2ccc(F)cc2)nc2cnc(N3CCOCC3)nc21	12.3%	-2.0%	-10.5%
COCCNc1nc(-c2c(C)noc2C)nc2ccccc12	0.2%	7.3%	-13.7%
COc1ccccc1CN1CC[C@@]2(CCCN(C(=O)c3cnccn3)C2)C1	-5.1%	2.3%	-2.3%
C[C@@](N)(C(=O)O)c1ccc(S(=O)(=O)O)cc1	1.2%	2.2%	-2.7%
C#CCCCCCCCCCCCC(O)CC(O)CO (stereo not drawn)	?	-5.9%	-12.8%
CN(Cc1ccco1)c1nc(-c2ccc3c(c2)OCO3)nc2ccccc12	-9.5%	-5.9%	24.9%
COc1ccccc1-c1nccc(NCc2cccc(C)c2)n1	-0.8%	-5.7%	?
OC1C2COC(O2)[C@H](O)C1O (stereo partly drawn)	-9.7%	-1.0%	-4.8%
COc1ncc2nc(-c3cn(C)c4ccccc34)c(=O)n(CCC#N)c2n1	-1.3%	-3.1%	-7.5%
Cn1cc(-c2nc3cnc(N4CCNCC4)nc3n(-c3ccccc3)c2=O)c2ccccc21	-6.5%	2.9%	-2.5%
C=C1C2CC[C@]3(CCC4[C@@]5(C)CCC[C@@]4(CN(CCO)C5)[C@@H]3C2)[C@@H]1O (stereo partly drawn)	-4.8%	-1.0%	-14.3%
CNc1cc(-c2ccccc2CN(C)C)ncn1	10.3%	-2.2%	-11.1%
CCNc1ncc2nc(-c3cn(C)c4ccccc34)c(=O)n(Cc3cccs3)c2n1	-10.8%	2.0%	-12.6%
O=C1C2=C(S[C@@H]3O[C@H](CO)[C@@H](O)[C@H](O)[C@H]3O2)C(=O)c2ccccc21	3.7%	4.2%	?
c1cncc(CNc2nc(-c3ccc4c(c3)OCO4)nc3ccccc23)c1	4.6%	-10.8%	9.7%
CC(=O)OC1CC[C@@]2(C)C3CC[C@@]4(C)C(CC5O[C@@]6(CCC(C)CO6)C(C)C54)C3CC[C@@H]2C1 (stereo partly drawn)	-7.2%	-0.2%	2.8%
O=C(Nc1ccccc1)N1CCCC2(CCN(C(=O)c3cnccn3)CC2)C1	0.9%	1.2%	-5.6%
CN1CCN(c2ncc3nc(-c4cccc(C#N)c4)c(=O)n(Cc4ccc(F)cc4)c3n2)CC1	?	-20.5%	-11.0%
Cc1noc(C)c1-c1cc(NCc2cccnc2)ncn1	0.8%	3.3%	5.3%
CN(CCc1ccc(Cl)c(Cl)c1)CCN1CCCC1	-1.1%	-2.9%	-6.1%&-20.4%
CCc1ccc(OCc2ccccc2C(=O)Nc2ccc3nc(C)cc(N)c3c2)cc1	2.5%	-0.4%	0.0%
CC1CC2CC(=O)C3CCCN4CCCC2[C@]34C1 (stereo partly drawn)	0.1%	-4.0%	-8.1%
Cc1ccccc1-c1ccc2ncnc(NC3CC3)c2c1	-4.5%	-8.2%	-42.8%
O=c1c(CCc2ccccc2)nc2cnc(N3CCOCC3)nc2n1C[C@H]1CCCO1	2.9%	-6.3%	-0.7%
CN(C)c1ncc2nc(-c3cccc(C#N)c3)c(=O)n(C[C@H]3CCCO3)c2n1	6.2%	2.2%	0.9%
CC(C)CN1CCCC2(CCN(C(=O)c3cc(C(F)(F)F)cc(C(F)(F)F)c3)CC2)C1	11.4%	-0.1%	-3.0%
CC1(C)OC2CC3C4CCC5=CC(=O)C=C[C@@]5(C)[C@]4(F)C(O)C[C@@]3(C)[C@]2(C(=O)CO)O1 (stereo partly drawn)	-0.3%	1.9%	3.2%
CN(C)C(=O)c1ccc(-c2cc(N(C)Cc3ccco3)ncn2)cc1	-2.9%	2.8%	27.6%
COc1cccc(-c2nccc(NCc3cccc(C)c3)n2)c1	9.1%	-9.3%	13.3%
CCNc1ncc2nc(-c3cn(C)c4ccccc34)c(=O)n(-c3ccc(OC)cc3)c2n1	-15.5%	6.5%	-1.4%
COc1ccc(CNc2cc(-c3ccccc3C)ncn2)c(OC)c1	-0.3%	3.6%	1.8%
CC1(C)OC(=O)NC1=O	6.1%&-8.4%	3.3%&-1.3%	-3.7%
COc1ccccc1CN1CCCC2(CCN(C(=O)c3csnn3)CC2)C1	-16.4%	-2.3%	2.9%
COc1ccccc1-c1ccc2ncnc(Nc3ccccc3)c2c1	17.0%	-10.5%	-27.4%
COc1ccccc1-c1ccc2ncnc(N3CCN(C)CC3)c2c1	-5.1%	-0.2%	?
COC(C)C(C(=O)OCC1=CCN2CC[C@H](O)[C@@H]12)C(C)C (stereo partly drawn)	-2.2%	2.8%	-2.6%
N#Cc1cccc(-c2cc(NCc3ccccc3)ncn2)c1	2.7%	-3.8%	-1.7%
O=C(O)[C@@H]1C[C@H]2C[C@@H](CP(=O)(O)O)CC[C@H]2CN1	-2.5%	-0.6%	-4.1%
O=c1cnc2cnc(Nc3ccccc3)nc2n1CCc1ccccc1	19.6%	2.2%	-13.3%
O=C(N/N=C\c1ccccc1O)c1ccccc1O	31.6µM*	-10.0%	-6.7%

In a second layout: 2 of the compounds above.
COc1ccc(CNc2cc(-c3ccccc3C)ncn2)c(OC)c1
  Cruzain inh noDet = -0.3%; Cruzain inh Det = 3.6%; StopGo reporter = 1.8%
CC1(C)OC(=O)NC1=O
  Cruzain inh noDet = 6.1%&-8.4%; Cruzain inh Det = 3.3%&-1.3%; StopGo reporter = -3.7%

(cont.)
SMILES	Cruzain inh noDet	Cruzain inh Det	StopGo reporter
COc1c2c(cc3c1C(CC(O)C(C)C)N(C)CC3)OCO2 (stereo not drawn)	7.9%	2.6%	-24.0%
Cc1cc(O)cc(=O)o1	1.3%	-2.9%	-9.0%
O=C(Nc1cc(NC(=O)c2ccccc2)c(C(=O)O)cc1C(=O)O)c1ccccc1	-1.9%	-9.1%	-9.4%
COc1ccc(CNc2ncncc2-c2cccc(C#N)c2)c(OC)c1	-8.5%	-0.2%	22.4%
COc1cccc(Nc2ncc3nc(-c4ccc(F)cc4)c(=O)n(C)c3n2)c1	-11.2%	-0.5%	-8.3%
CNc1nc(-c2ccc(N(C)C)cc2)nc2ccccc12	-2.5%	-2.6%	20.4%
O=c1c(-c2ccc(Cl)cc2)nc2cnc(N3CCNCC3)nc2n1Cc1cccs1	14.5%	1.6%	-15.1%
CC(=O)OC1CC[C@]2(C)C(CC(OC(C)=O)[C@]3(C)C2CC[C@@]2(C)C(c4ccoc4)OC(=O)C4O[C@]432)C1(C)C (stereo partly drawn)	3.6%	-3.6%	-9.7%
c1ccc(C(c2ccccc2)N2CC3(CCNCC3)C2)cc1	1.9%	-1.7%	-3.3%
CC(C)C[C@H](NC(=O)N1CCCCCC1)C(=O)N[C@H](Cc1cn(C)c2ccccc12)C(=O)N[C@H](Cc1ccccn1)C(=O)O	?	-2.5%	-8.7%
O=C(c1ccncc1)N1CCC2(CC1)CCN(c1ccc(-c3ccccc3)cc1)CC2	9.4%	0.5%	?
COc1ccc(NC(=O)N2CC[C@@]3(CCCN(C(C)=O)C3)C2)cc1	9.6%	2.0%	-2.4%
Cc1cnc(CNc2cc(-c3ccccc3C(F)(F)F)ncn2)cn1	7.2%	1.9%	24.4%
CS(=O)(=O)N1CCC[C@@]2(CCN(Cc3nccs3)C2)C1	2.4%	2.6%	-20.4%
Cc1cnc(CNc2ncnc3ccc(-c4ccccc4C#N)cc23)cn1	1.8%	2.0%	-13.0%
O=C(O)C1=CCCN(CCOC(c2ccc(C(F)(F)F)cc2)c2ccc(C(F)(F)F)cc2)C1	?	-1.6%	-11.9%
COc1ccc(-c2nc3cnc(N(C)C)nc3n(CCC#N)c2=O)cc1	-1.4%	4.0%	-3.7%
CCCCCCCCCCCCCC(=O)OC1C(C)[C@@]2(O)C(C=C(CO)C[C@]3(O)C(=O)C(C)=C[C@H]23)[C@@H]2C(C)(C)[C@]12OC(C)=O (stereo partly drawn)	14.4%	-7.1%	24.8%
COC(=O)N1CCC2(CCCN(Cc3ccc(C#N)cc3)C2)CC1	-0.9%	-0.5%	-17.1%
N#Cc1ccccc1-c1ccc2ncnc(NC3CC3)c2c1	-5.9%	-2.6%	?
O=c1c(CCc2ccccc2)nc2cnc(Oc3ccccc3)nc2n1C1CC1	?	-8.1%	20.3%
CC(C)CN1CCCC2(CCN(C(=O)c3cnccn3)CC2)C1	3.5%	3.6%	-12.4%
CC(=O)NCCNc1cc(-c2ccccc2CN(C)C)ncn1	-4.7%	9.2%	-3.5%
Oc1ccc(C2Oc3cc(O)cc(O)c3CC2O)cc1 (stereo not drawn)	-7.2%	2.4%	?

Only Cruzain inh noDet and Cruzain inh Det, for some of the entries so far:
SMILES | Cruzain inh noDet | Cruzain inh Det
COC(=O)N1CCC2(CCCN(Cc3ccc(C#N)cc3)C2)CC1 | -0.9% | -0.5%
N#Cc1ccccc1-c1ccc2ncnc(NC3CC3)c2c1 | -5.9% | -2.6%
O=c1c(CCc2ccccc2)nc2cnc(Oc3ccccc3)nc2n1C1CC1 | ? | -8.1%
CC(C)CN1CCCC2(CCN(C(=O)c3cnccn3)CC2)C1 | 3.5% | 3.6%

Next results
SMILES	Cruzain inh noDet	Cruzain inh Det	StopGo reporter
Cc1noc(C)c1-c1nc(NC2CC2)c2ccccc2n1	-9.8%	-7.4%	-22.0%
C[C@]12CCC3c4ccc(OC(=O)c5ccccc5)cc4CCC3C1CCC2=O (stereo partly drawn)	4.8%	3.2%	-7.2%
COc1ncc2nc(CCc3ccccc3)c(=O)n(C3CC3)c2n1	3.4%	-4.5%	11.2%
CC(=C(CCOP(=O)(O)O)SC(=O)c1ccccc1)N(C=O)Cc1cnc(C)nc1N	-4.7%&-8.3%	5.2%&3.9%	2.6%
O=C(O)C1CCC[C@@H]2[C@@H]3CC(CN12)[C@@H]1CCCCN1C3 (stereo partly drawn)	-3.6%	5.6%	0.0%
